CapD inh – CapD enzyme inhibition; 140,000 compounds, 0.23% hits; z-score (no concentration beside the values); purified CapD enzyme, fluorescence intensity read-out; hits give low values; some hits fall short of the stated cut;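 active = z-score under -4 in either of two replicates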;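 also: stock transfer was 100 nL into about 40 µL; score is relative to mean and spread of the plate; one replicate is shown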
AID504770 – growth inhibitors of E. coli YBA685 in a screen for V. cholerae RctB (chromosome II replication) inhibitors | z-score (test concentration not listed) | E. coli YBA685 rctB-dependent plasmid, OD600 growth, 3 h; hits give low values | AID 504770 | 130,000 compounds, 0.27% hits;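 active = z-score under -2 on both plates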;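 also: wells of about 30 µL received 100 nL stock; score is relative to mean and SD of the test wells; the first replicate is given; strong numbers were not always called active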
* = called active by the depositor; x = not tested or not shown; & = joins results of further samples. No enrichment for hits. About 0.37% of those tested had a hit in this group.

Results follow in this order: CapD inh	AID504770
CC(Cl)(Cl)/C(O)=C(\C#N)c1nnc2n1CCCCC2
    0.03	0
COC(=O)c1ccc(NCC(=O)Nc2cc(C)cc(C)c2)cc1
    0.63	0.3
C=CCSc1ncccc1C(=O)O
    1.5	x
CSc1ccccc1C(=O)OCC(=O)NC1CC1
    x	-0.5
Cc1cccc2cc(C(c3nnnn3C(C)(C)C)N(Cc3ccccc3)Cc3ccco3)c(=O)[nH]c12 (stereo not drawn)
    3.21	-0.25
Cc1nc(-c2c(C(=O)NNC(=O)OCCSc3ncc4ccccn34)noc2C)cs1
    4.98	x
CCOC(=O)c1cnn(CCOC(=O)c2cccs2)c1NC(=O)c1cccs1
    0.28	-0.15
CCc1ccc(-n2c(=S)sc3c(=O)n(-c4ccccc4C)c(=S)[nH]c32)cc1
    -1.38	x
OCC(CO)(CO)NCC(O)CN1c2ccccc2Sc2ccccc21 (stereo not drawn)
    0.8	1.05
CC1(C)CC(=O)c2cc(C(=O)O)c(=O)n(-c3ccccc3)c2C1
    x	0.3
O=C(O)COCC(=O)Nc1ccc(Oc2cccc(C(F)(F)F)c2)nc1
    1.43	-0.25
O=C(O)CCc1nc2ccccc2[nH]c1=O
    41.9&15.7	0.15
O=C1CCC(C(=O)N2CCOCC2)(c2ccccc2)N1Cc1ccccc1 (stereo not drawn)
    -0.275	x
C#CCOC(=O)Nc1ccc(Cl)c(Cl)c1
    0	-1.05
Cc1c(N=c2scc(-c3ccccc3)n2-c2ccccc2)c(=O)n(-c2ccccc2)n1C
    0.115	-0.1
Cc1ccccc1N/C(SCc1ccc(Cl)cc1)=C(/C#N)C(=O)NCc1ccco1
    -1.2	x
O=C1/C(=C\c2ccccc2)Sc2ccccc21
    0.325	-0.45
Cc1cccn2cc(CSc3nnc(-c4nn(Cc5ccccc5)c(=O)c5ccccc45)o3)nc12
    x	2.3
O=C1CN(C(=O)c2ccc3c(c2)S(=O)(=O)c2ccccc2C3=O)c2ccccc2N1
    x	-0.15
COC(=O)C1=C(C)NC2=C(C(=O)CC(c3ccc(OC)c(OC)c3)C2)C1c1ccc(Cl)c(Cl)c1 (stereo not drawn)
    0.56	x
CCOC(=O)C1CCN(C(=O)c2cc3c(C)cc(C)cc3[nH]2)CC1
    1.05	-0.85
COc1cccc2cc(C(=O)NCCc3c(C)[nH]c4c(C)cccc34)c(=O)oc12
    -0.25	1.15
CCC(=O)NCc1nc(-c2ccccc2)no1
    -0.43	1.55
CCN(C(=O)CCn1c(=O)oc2ccccc21)c1ccccc1
    0.57	0
CCCCc1ccc(-n2nc3cc(C)c(NC(=S)NC(=O)c4ccco4)cc3n2)cc1
    0.86	-0.2
CCCCn1c2ccccc2c2nnc(SCC(=O)N=C3NC(=O)CS3)nc21
    -0.23	1.35
COc1cccc(CCOC(=O)NCCc2c[nH]c3ccc(OC)cc23)c1
    -0.43	x
CSC1=NCCN1C(=O)c1ccc(S(=O)(=O)N2CCCC2)cc1
    x	-0.15
CCOC(=O)N1CCC(NC(=O)CSc2nc3ccccc3n2S(=O)(=O)c2ccccc2)CC1
    -0.435	x
COCCNC(=O)c1ccc(N2CC3CC(C2)c2cccc(=O)n2C3)c(NC(=O)c2ccc(F)cc2)c1 (stereo not drawn)
    0.195	0.3
O=C(COc1ccccc1)c1ccc(O)c(O)c1O
    x	-1.75
O=C(NNC(=O)c1cc2c(ccc3ccccc32)o1)c1cccc(Cl)c1
    4.72	x
COc1ccc(NC(=O)CSc2nc3ccccc3o2)cc1OC
    -0.045	x
C=CCSc1ncnc2c1sc1nc(CC)c3c(c12)CCCC3
    0.155	0.45
CN(C1CCN(Cc2cccc(Cl)c2)C1)S(=O)(=O)c1ccc(F)c(F)c1 (stereo not drawn)
    0.605	x
CC1CCC(C(=O)NC(Cc2c[nH]c3ccccc23)C(=O)NCc2cccnc2)CC1 (stereo not drawn)
    -0.51	-0.9
Cc1[nH]nc2nc(SCC(=O)NCCc3ccccc3)n(-c3ccccc3Cl)c(=N)c12
    5.79	2.6
CC1(C)CC(=O)C2=C(C1)Nc1ccc3ccccc3c1C2c1ccc(C(F)(F)F)cc1 (stereo not drawn)
    25.5	x
C=CCN(CC=C)S(=O)(=O)c1ccc(C(=O)Nc2ccccc2-c2nc3ccccc3[nH]2)cc1
    0.825	-0.15
COc1ccc(NC(=S)N2CCCC(c3ccccc3)=N2)cc1
    -1.59	-0.35

Grouped by structure: those above containing a Cl atom
Results follow in this order: CapD inh	AID504770
CC(Cl)(Cl)/C(O)=C(\C#N)c1nnc2n1CCCCC2
    0.03	0
C#CCOC(=O)Nc1ccc(Cl)c(Cl)c1
    0	-1.05
Cc1ccccc1N/C(SCc1ccc(Cl)cc1)=C(/C#N)C(=O)NCc1ccco1
    -1.2	x
COC(=O)C1=C(C)NC2=C(C(=O)CC(c3ccc(OC)c(OC)c3)C2)C1c1ccc(Cl)c(Cl)c1 (stereo not drawn)
    0.56	x
O=C(NNC(=O)c1cc2c(ccc3ccccc32)o1)c1cccc(Cl)c1
    4.72	x
CN(C1CCN(Cc2cccc(Cl)c2)C1)S(=O)(=O)c1ccc(F)c(F)c1 (stereo not drawn)
    0.605	x
Cc1[nH]nc2nc(SCC(=O)NCCc3ccccc3)n(-c3ccccc3Cl)c(=N)c12
    5.79	2.6

The list goes on:
Results follow in this order: CapD inh	AID504770
O=[N+]([O-])c1cc(C(F)(F)F)ccc1NNc1ccc(C(F)(F)F)cc1[N+](=O)[O-]
    0.33	x
Cc1nc(/N=C(/N)NC(=O)Cc2ccccc2)nc2ccccc12
    0.73	-0.25
COc1ccccc1CN(C)C(=O)C1COc2ccccc2O1 (stereo not drawn)
    x	-0.3
N/C(CS(=O)(=O)c1ccccc1)=N\O
    -0.23	x
Cn1nc(-c2ccccc2)c(CSc2cccc(Cl)c2Cl)c1Cl
    -0.44	x
CCN(CC)c1ccc(/C=C2\C(=O)NC(=S)N(c3ccc(F)cc3)C2=O)c(O)c1
    0.115	x
COc1cc(/C=C2\C(=O)N(c3ccc(Cl)c(C(=O)O)c3)N=C2C)cc(OC)c1OC
    0.1	x
CC1(/[N+]([O-])=C/c2ccc(Br)cc2)CCCCC1=O (stereo not drawn)
    -0.1	0.2
Cc1ccc(N2C(=O)/C(=C/c3ccc([N+](=O)[O-])cc3)C=C2c2ccccc2)cc1[N+](=O)[O-]
    0.155	x
Cc1cc(N2CCN(c3ncccn3)CC2)n2c(nc3ccccc32)c1C#N
    14.9	x
Cc1ccc(NC(=O)CNC(=O)c2ccc(Br)o2)c(C)c1
    -0.32	1.45
COC(=O)c1ccccc1NC(C)=O
    2.51	x
O=C(CSc1ncccn1)NC(=O)NCc1ccco1
    x	0.05
CCCNC(=O)c1ccc2c(c1)ncn2-c1cc(OC)ccc1OC
    -2.18	-0.05
COC(=O)c1cnn(-c2ccccc2)c1-n1cccc1
    -1.35	-1.05
Cc1cc(C)cc(Nc2cc(=O)oc3ccccc23)c1
    -0.1	0.45
CC(=O)c1ccc(N2CCN(C(=O)c3ccccc3CC(=O)O)CC2)cc1
    1.85	x
CC(C)N(C(=S)NCC1CCCO1)c1ccccc1 (stereo not drawn)
    x	-0.3
CCN1CCN(C(=O)/C=C/c2cccs2)CC1
    -1.71	-1.3
O=C(O)CCc1nnc2ccc(Cl)nn12
    0.49	1.4

Single records (already shown). Order of screens: CapD inh | AID504770
Cc1cc(C)cc(Nc2cc(=O)oc3ccccc23)c1 across the screens: -0.1 | 0.45
COC(=O)c1cnn(-c2ccccc2)c1-n1cccc1 across the screens: -1.35 | -1.05
CC1(/[N+]([O-])=C/c2ccc(Br)cc2)CCCCC1=O (stereo not drawn) across the screens: -0.1 | 0.2

(continued)
molecule	CapD inh	AID504770
CC1CCCN(C(=O)COC(=O)c2ccccc2O)C1 (stereo not drawn)	-0.3	-2.1
CCC(=O)N1N=C2C3CCN(CC3)C2C1c1ccccc1 (stereo not drawn)	0.155	0.25
COCCNC(=O)CSCc1cc2cccc3c2n(c1=O)CCC3	12.3	x
COC(=O)CN1C(=O)CS/C1=C\C#N	x	0.05
CC1=CC(=O)C2=C(C)C[C@H](O)[C@@H]3[C@H](OC(=O)[C@@H]3C)[C@@H]12	0.735	0.55
O=C(COC(=O)c1cc(=O)[nH]c(=O)[nH]1)Nc1ccccc1	x	1.6
CC1CC(NC(=S)NCc2csc3ccccc23)CC(C)(C)C1 (stereo not drawn)	-0.2	1.05
OC1(c2ccccc2)CN(c2ccccc2)C2=[N+]1CCS2 (stereo not drawn)	2.23	x
O=c1c(C/C=C/c2ccccc2)c(O)ccn1Cc1cccc(C(F)(F)F)c1	-0.835	x
Cc1cc(C)nc(N2CCN(C(=O)c3cccc(C(F)(F)F)c3)CC2)n1	0.045	x
O=C(O)c1ccc2c(c1)C(=O)N(c1ccccn1)C2=O	-0.17	0.5
Cc1ccc(Cc2nnc(C(=O)NCc3ccccc3)o2)cc1	0.315	0.6
COC(=O)c1cc2ccccc2c(CN2C(=O)c3ccccc3C2=O)c1O	-0.575	0.15
O=C1C(Cc2ccc(F)cc2)Sc2nc3ccccc3n21 (stereo not drawn)	-0.115	-0.45
COC(=O)c1ccc(N=Cc2cccs2)cc1	0.375	-0.95
CCOC(=O)C1=C(N)Oc2c(c(C)nn2-c2ccccc2)C12C(=O)N(C)c1ccccc12 (stereo not drawn)	-0.545	-0.15
CC(C)(C)c1ccc(C2C=C(Nc3cccc(Cl)c3)C(=O)N2c2cccc(Cl)c2)cc1 (stereo not drawn)	4.48	x
c1ccc(-c2nnc3n2C2(CCCC2)Cc2ccccc2-3)cc1	-0.85	1.5
Cc1ccc(-c2cn3ccsc3n2)cc1	x	-0.75
Cc1ccc(NC(=O)CSc2nnc3ccccn23)cc1	-0.215	-0.4
Oc1cccc(N=Cc2c[nH]c3ccc(Br)cc23)c1	2.07	0.3
C/C(=N\Nc1ccc([N+](=O)[O-])cc1[N+](=O)[O-])c1ccccc1Cl	-0.225	x
COCC(C)N=Cc1c(O)[nH]c2ccccc12 (stereo not drawn)	-1.94	-0.45
Cn1c(SCc2ccccc2Cl)nc(-c2ccccc2)c1-c1ccccc1	0.09	x
Cc1nnc(SCc2ccc(C#N)cc2)n1C1CC1	x	-0.75
O=C1Oc2ccc3ccccc3c2C1(O)C(F)(F)F (stereo not drawn)	22.2	-0.05
O=C1CCCN1C(=O)CSc1n[nH]c(=O)n1CCc1ccccc1	x	0.05
CCn1ncc(Cl)c(Cl)c1=O	0.135	-1
CC(C)c1ccc(NC(=O)C2CC(=O)N(c3ccccc3)C(=S)S2)cc1 (stereo not drawn)	-0.045	0.8
O=C(CN(Cc1ccco1)S(=O)(=O)c1ccc(Cl)cc1)N1CCCc2ccccc21	x	-0.35
Cc1nnsc1C(=O)Nc1cccc(C(F)(F)F)c1	x	0.25
CCN1CCN(C(=O)/C(C#N)=c2\s/c(=C\c3ccco3)c(=O)n2-c2ccc(Cl)cc2)CC1	x	1.1
CN1CCN(Cc2c3ccccc3cc3ccccc23)CC1	33.4	0.15
O=C1CC2CS(=O)(=O)CC2N1Cc1cccnc1 (stereo not drawn)	0.56	0.3
Cn1c2c(c3ccccc31)/C(=N/OC(=O)c1cccc3ccccc13)CCC2	-0.565	x
CC(COC(=O)NNC(=O)c1ccccc1NC(=O)c1ccccc1Cl)c1ccccc1 (stereo not drawn)	-0.505	x
O=C(CN1C=C(c2ccc3ccccc3n2)Cc2ccccc21)c1ccccc1	7.73	x
CN(C)C(=O)Nc1cccc(O)c1	x	-0.4
Cc1cc(C)nc(NC(=O)CSC(=S)N2CCOCC2)n1	1.91	-0.4
O=C(O)CCC(=O)N1CC=C(c2ccccc2)CC1	2.32&-0.78	-0.8
Cc1cc(NC(=O)CSc2nc3ccccc3c(=O)n2CCO)n(-c2ccccc2)n1	x	-0.3
CC(=O)Nc1cccc(NC(=O)CSc2nc(C)c(C)c(C)c2C#N)c1	-0.365	x
Oc1c(C(c2ccc(F)cc2)N2CCCC2)ccc2cccnc12 (stereo not drawn)	-1.28	0.2
Cc1ccc(C)c(NC(=O)CSc2c(C)n[nH]c2C)c1	x	0.45
CCC1(C)OC(c2ccc(Br)cc2)=Nc2ccccc21 (stereo not drawn)	-0.36	-0.65
CCOC(=O)C(C)Sc1nc2c(c(=O)n1-c1ccc(OCC)cc1)SCC2 (stereo not drawn)	0.36	x
O=c1c(Cc2ccccc2)c(O)c2cccc3c2n1CCC3	6.37	-0.55
Cc1nc2cc(NC(=O)CCN3C(=O)NC4(CCCC4)C3=O)ccc2n1-c1ccccc1	x	0.05
CC12C=CC(C)(O1)C1C(=O)N(c3cccc4ccccc34)C(=O)C12 (stereo not drawn)	-0.13	x
CCOc1ccc(N2C(=O)C(C)SC23C(=O)N(CN2CCN(c4ccccc4)CC2)c2ccccc23)cc1 (stereo not drawn)	0.35	x
Cc1cn[nH]c1C(F)(F)F	-0.895	-0.7
Cc1nnc(Sc2cc(C(=O)NCCc3ccccc3)c3ccccc3n2)s1	0.24	-0.1
COc1ccc(C2N(C)c3ccccc3N2C)cc1	0.255	0.6
O=C(OCC(=O)N1CCCC1=O)C(c1ccccc1)c1ccccc1	x	2.05
CCOC(=O)Cn1nc(-c2ccccc2)c2ccccc2c1=O	-0.08	-0.6
CC(C)(C)c1ccc(-c2[nH]nc(NS(=O)(=O)c3ccccc3)c2Br)cc1	-0.135	-0.6
O=C(CC(F)(F)F)Nc1ccccn1	0.98	-0.55
Cc1cc2nn(-c3ccccc3)nc2cc1NC(=O)c1cccs1	7.25	-0.3
COc1ccc(Br)c(-c2nnc(-c3ccccc3NS(=O)(=O)c3ccc(Cl)cc3)o2)c1	0.735	x
Cc1cc(Cl)ccc1OCC1NCCS1 (stereo not drawn)	-0.515	-1.2

Source: PubChem
